Screening data: PubChem, several laboratories
RanGTP-Impb inh: inhibitors of RanGTP-importin-beta interaction, primary screen, biochemical, FRET, CFP-Ran, YFP-importin-beta, homogeneous; cell-free CFP-Ran/YFP-importin-beta FRET ratio; inhibition, % (test concentration not listed); hit rate 1.1% among 300,000; AID 2216;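 active = most replicates above 15%; inconclusive = exactly half above 15%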;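 note: 0% = DMSO wells and 100% = Ran loaded with GDP instead of GTP; wells of about 40 µL received 100 nL stock; the first replicate is given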
T cruzi inh: blocks replication of Trypanosoma cruzi; T. cruzi beta-gal in NIH3T3, luminescence, 90 h; inhibition, % (concentration not given with the values); hit rate 1.4% among 300,000;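 active = mean inhibition across valid replicates above about 55%, limit read from the data; inconclusive = mean below that limit but half or more replicates reach it; inactive = mean below it, under half of replicates reach it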;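 note: signal also drops with host cell toxicity which is not excluded here; 0% = plate median of DMSO wells and 100% = zero luminescence signal; higher percent means less beta-gal luminescence so fewer parasites; stock transfer was 50 nL into about 50 µL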
LANA-H2A inh: blocks KSHV LANA binding to histone H2A/H2B. Q9QR71. inhibition, % (no concentration beside the values). AID 2629. cell-free LANA-H2A/H2B peptide, fluorescence polarization. hit rate 0.6% among 320,000; in the data active = inhibition mostly above about 10%, no sharp cut-off; inactive = mostly below about 6.7%;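 note: stock transfer was 7.5 nL into about 10 µL; 0% = median of vehicle wells and 100% = median of positive control wells; one replicate is shown; the record names a cut of 25% in any replicate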
Target sequence (Q9QR71 whole entry, looked up): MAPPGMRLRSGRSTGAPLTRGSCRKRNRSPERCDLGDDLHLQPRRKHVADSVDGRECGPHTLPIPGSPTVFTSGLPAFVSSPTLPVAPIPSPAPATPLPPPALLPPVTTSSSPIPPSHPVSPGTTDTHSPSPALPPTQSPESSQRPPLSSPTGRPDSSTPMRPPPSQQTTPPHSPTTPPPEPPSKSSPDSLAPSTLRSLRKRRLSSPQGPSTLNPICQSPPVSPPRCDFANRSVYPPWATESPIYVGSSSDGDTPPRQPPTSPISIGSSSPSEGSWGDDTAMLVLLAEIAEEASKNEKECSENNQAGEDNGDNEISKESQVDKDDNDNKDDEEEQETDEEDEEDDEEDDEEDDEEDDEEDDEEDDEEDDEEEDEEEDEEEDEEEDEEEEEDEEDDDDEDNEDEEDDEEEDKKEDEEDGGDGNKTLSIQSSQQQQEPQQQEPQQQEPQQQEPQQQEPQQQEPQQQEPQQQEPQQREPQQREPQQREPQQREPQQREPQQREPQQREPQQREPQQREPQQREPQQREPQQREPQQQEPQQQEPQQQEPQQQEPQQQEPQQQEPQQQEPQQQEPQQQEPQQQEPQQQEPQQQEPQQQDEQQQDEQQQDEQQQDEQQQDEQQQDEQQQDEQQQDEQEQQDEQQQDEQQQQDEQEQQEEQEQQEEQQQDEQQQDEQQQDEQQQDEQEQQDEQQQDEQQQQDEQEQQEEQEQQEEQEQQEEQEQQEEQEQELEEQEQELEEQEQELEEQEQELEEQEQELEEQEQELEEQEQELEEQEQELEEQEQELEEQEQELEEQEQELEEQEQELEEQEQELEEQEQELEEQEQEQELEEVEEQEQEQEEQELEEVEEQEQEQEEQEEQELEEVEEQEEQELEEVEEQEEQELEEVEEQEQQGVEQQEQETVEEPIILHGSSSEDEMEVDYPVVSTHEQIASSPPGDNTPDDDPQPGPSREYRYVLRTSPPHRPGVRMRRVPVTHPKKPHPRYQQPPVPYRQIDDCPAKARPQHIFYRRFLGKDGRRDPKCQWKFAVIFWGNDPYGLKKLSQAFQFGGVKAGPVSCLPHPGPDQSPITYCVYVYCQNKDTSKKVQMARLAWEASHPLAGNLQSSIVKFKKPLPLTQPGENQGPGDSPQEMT
Calb FLC: C. albicans growth modulation with fluconazole; C. albicans CaCi-2 (fluconazole-resistant clinical isolate) + fluconazole, Alamar Blue growth, 48 h; growth inhibition, % (concentration not given with the values); hit rate 0.57% among 300,000; AID 1979;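 active = most replicates above 75%; inconclusive = exactly half above 75%; inactive = most below 75%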;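 note: all wells also contain fluconazole at 8 µg/ml as a sub-toxic cotreatment; 0% = median of DMSO wells and 100% = median of geldanamycin control wells; wells of about 8 µL received 7.5 nL stock; the first replicate is given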
A1 inh: inhibitors of the anti-apoptotic protein A1, read as caspase activation; hit rate 0.066% among 330,000; AID 2462; caspase activation, % (test concentration not listed); MEF A1-2A-BIM cells, Caspase-Glo 3/7 luminescence, 3 h; percent of clofoctol response, vehicle zero;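 active = over half of replicate activation scores above 10%, or exactly half above 10 with the replicate mean above 10; inconclusive = replicate mean below 10 yet half the replicates above 10; inactive = over half of replicates below 10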;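 note: wells of about 30 µL received 50 nL stock; many hits fall short of the cut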
Beta cell apopt: beta cell apoptosis inhibition. INS-1E cytokine-induced death, ATP luminescence, 48 h; percent of positive-control rescue, neutral wells zero. protection from apoptosis, % (concentration not given with the values). hit rate 0.8% among 300,000. AID 435005;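 active = all replicates at 75% or more, or half of them and the mean; inconclusive = half reach 75% but not the mean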;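 note: 0% = cytokine-treated negative control wells and 100% = positive control rescue; higher means more ATP so stronger rescue from cytokine killing; wells of about 40 µL received 100 nL stock; the first replicate is given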
UCH37 inh: human UCH37 deubiquitinating enzyme inhibition. hit rate 0.33% among 330,000. purified proteasome/UCH37, Ub-AMC cleavage fluorescence. inhibition, % (no concentration beside the values). Q9Y5K5;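 active = mean of two replicates above 20%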;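 note: 0% = compound-free wells with enzyme and 100% = wells lacking proteasome; stock transfer was 100 nL into about 20 µL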
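system = Proteasome-associated human UCH37 deubiquitinase | amount = 0.15 nM proteasome as dispensed | medium = pH 7.4 Tris-HCl (50 mM) with ovalbumin, ATP-MgCl2, DTT | incubation = 30 min preincubation with enzyme, 25 min cleavage at room temperature | detection = AMC fluorescence 355/460 nm | read-out basis = percent inhibition | controls = no-proteasome and no-compound wells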
Beta2AR agonist: agonists of human beta-2 adrenergic receptor inducing internalization; hit rate 0.43% among 340,000; Am2.2-beta2AR cells, FAP receptor internalization, flow cytometry; reference of the scale not given here; P07550; AID 504454; response, % (test concentration not listed);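 active = response above a set limit, near 3 SD of response in nonfluorescent compounds, cut at about 42% in these data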;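 note: stock transfer was 100 nL into about 11 µL; a reference agonist was the positive control; negative values mostly stem from fluorescent compounds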
Starred values were filed as active, the others as inactive; u = inconclusive; x = no result given. Rows are unselected. About 4.3% of those tested had a hit in this group.

SMILES	RanGTP-Impb inh	T cruzi inh	LANA-H2A inh	Calb FLC	A1 inh	Beta cell apopt	UCH37 inh	Beta2AR agonist
O=C(N/C(=C\c1cccc([N+](=O)[O-])c1)C(=O)N(CCO)CCO)c1ccco1	x	-3	2.8	-1	0.3	-2	3.5	4
CC1CCCCN1CC(=O)NCc1ccc2c(c1)OCO2 (stereo not given)	-3.2	-11	-1.9	-16	-0.1	-4	4.5	5
CCOc1ncccc1C(=O)NNC(=O)c1cccc(S(=O)(=O)N2CCOCC2)c1	x	x	-1.9	x	0.4	-3	5.1	4
COc1ccc(CNc2cccc(F)c2)cc1Br	-1.1	7	-1.8	0	-0.3	0	4.7	-2
Cc1csc(NC(=O)c2ccccc2O)n1	2.0	-17	1.6	-3	-2.8	5	-49	5
CCc1nnc(NC(=O)CCC(=O)N2CCN(c3cc(C)ccc3C)CC2)s1	u	16	-2.5	6	0.2	-3	0.0	5
COc1cc(C(=O)NC(C)c2ccccc2)ccc1OCC(=O)N1CCOCC1 (stereo not given)	x	x	-6.8	x	0.4	-2	0.4	-10
C[C@@H]1C=C(C(=O)N2CCN(Cc3ccccc3)CC2)O[C@H](OCc2ccc(CO)cc2)C1	-3.2	-13	1.4	-13	0.0	2	-2.5	-8
O=C(Nc1ccccc1C(=O)OC1CCOC1=O)c1ccco1 (stereo not given)	-2.5	-7	0.2	16	-0.2	-4	0.0	0
O=C(O)c1cccc(C(=O)c2cccc3ccccc23)c1	-0.5	-3	-4.5	17	0.5	-2	3.2	5
Cc1csc(N2CCN(c3cc4nc(-c5ccncc5)[nH]c4cc3Cl)CC2)n1	5.5	2	-1.9	0	-0.1	-5	-4.2	2
COc1ccc(C2CC(c3ccc(OC)cc3)n3nc(NC(=O)c4ccco4)nc3N2)cc1 (stereo not given)	-2.0	20	-3.5	5	0.8	-4	-31	-19
Cn1c(=O)n(CC#N)c2ccccc21	-1.8	-16	-0.1	102*	-0.6	-1	1.3	4
CC(=O)c1cccc(OCC(=O)Nc2cc(S(=O)(=O)N3CCOCC3)ccc2N2CCCC2)c1	x	-6	0.9	0	1.5	0	0.6	-8
CCOc1ccc(OCCOCCN2CCc3ccccc3C2)cc1	0.5	77*	-2.5	-31	0.0	-1	-1.5	-7
C=COCCNC(=O)Nc1ccc(Cl)cc1Cl	-0.3	13	-1.2	-16	-1.5	6	-1.3	4
CC1=C(C)CC(C(=O)Nc2nc(-c3ccc(C)cc3C)c(C)s2)C(C(=O)O)C1 (stereo not given)	0.2	-8	1.0	2	0.6	-12	0.9	13
CCc1ccc(NC(=O)CCC(=O)c2ccc(C)cc2)cc1	1.6	-3	3.7	-6	0.5	-6	6.1	0
CCc1ccc(NC(=O)C(C)OC(=O)c2cccc(S(=O)(=O)N3CCc4ccccc4C3)c2)cc1 (stereo not given)	1.3	31	0.0	3	0.9	-5	2.1	-4
OC(COc1ccc(Cl)cc1)CSc1ccccn1 (stereo not given)	-1.2	-5	5.7	-12	-0.1	-10	0.7	-2
Cc1cc(Cl)c2oc(C(=O)NCC(C)(C)N3CCOCC3)c(C)c2c1	2.4	20	-2.4	17	-0.1	12	1.9	-10
Cc1cc(C(=O)Nc2nc(C)c(C(=O)N(C)C)s2)ccc1[N+](=O)[O-]	6.3	-1	5.9	12	-4.1	1	5.4	4
O=C(CSc1nnc(-c2cccs2)n1Cc1ccccc1)N1CCc2ccccc2C1	5.2	17	0.8	-21	-0.3	5	2.0	-15
Cc1ccc(Cl)cc1NC(=S)N(Cc1ccco1)C(C)c1cccs1 (stereo not given)	-3.2	-5	0.7	0	0.0	-9	2.7	2
Cc1cccc(C(=O)OCC(=O)NCCNC(=O)COC(=O)c2cccc(C)c2C)c1C	2.7	-6	-0.3	24	0.6	-2	-0.4	-6
C/C(=N\O)C1(C)N(O)C(C)(C)C(c2ccc(F)cc2)=[N+]1[O-] (stereo not given)	1.0	-12	-0.7	-3	-0.5	-8	x	2
CC(C)c1ccc(NC(=O)C2CC(=O)N(C3CCCC3)C2)cc1 (stereo not given)	-0.2	1	-4.2	-5	0.4	-1	4.6	-3
Cc1ccc2ncnc(Nc3cccc(C(=O)O)c3)c2c1	0.9	-13	4.0	17	-0.1	2	8.0	0
O=C(O)c1ccc(S(=O)(=O)Nc2ccc(O)c(Sc3nc4ccccc4s3)c2)cc1	-3.8	-9	8.6	7	0.1	-2	2.8	2
COc1ccc(-c2csc(N3CCSCC3)n2)cc1	-3.2	-12	0.3	-2	-2.3	-9	1.0	-15
CN(C)S(=O)(=O)c1ccc(N2CCCC2)c(C(=O)Nc2nc(-c3ccc(F)cc3)cs2)c1	1.5	14	2.3	-21	0.5	-1	4.8	12
COC(=O)C(CC(C)C)NC(=O)c1ccc([N+](=O)[O-])cc1 (stereo not given)	u	-13	3.3	5	1.3	-2	2.1	13
N#Cc1c(F)cccc1N1CCC(C#N)CC1	0.4	-9	5.4	-3	0.6	-2	-56	1
CC12CN3CC(C)(CN(C1)C3c1ccccc1F)C2 (stereo not given)	1.6	2	3.5	-5	-0.1	-5	1.3	7
NS(=O)(=O)c1ccc(CCNC(=O)c2cccc([N+](=O)[O-])c2)cc1	-3.0	4	-1.4	-5	-0.3	3	-1.3	8
Cc1cc(C(=O)CN2C(=O)C(=O)N(Cc3ccco3)C2=O)c(C)n1CCc1ccc(F)cc1	x	x	-1.1	x	-0.4	-22	-0.6	8
O=[N+]([O-])c1c(NCCO)cc(N2CCCCCC2)c2nonc12	-4.1	2	4.6	6	-0.1	8	9.8	3
Cc1ccc(S(=O)(=O)NC(C(=O)N2CCOCCOCCOCC2)C(C)C)cc1 (stereo not given)	1.0	-9	3.5	-7	-0.1	-4	0.6	4
CN1CCN(c2nc(-c3ccc(Br)cc3)nnc2-c2ccccc2)CC1	-3.8	65*	-1.7	-8	-3.4	7	0.1	-5
CC(C)CN(C(=O)CCCSc1nc2ccccc2[nH]1)c1c(N)n(Cc2ccccc2)c(=O)[nH]c1=O	4.8	-5	-4.2	5	-0.7	-1	-2.7	2
CSc1ccc(Cl)c(C(=O)NCCOc2cc(C)ccc2C(C)C)c1	-0.9	27	3.4	9	1.2	3	1.9	-2
CCCOc1ccccc1C1NC(=O)NC(C)=C1C(=O)OCCOC(C)C (stereo not given)	0.9	8	0.8	26	0.8	2	0.5	-5
COC(=O)c1nn(-c2ccccc2)nc1-c1nn(-c2ccccc2)nc1C(=O)OC	-1.4	11	-4.7	-2	0.1	8	0.6	-10
Cc1ccc(NC(=O)CSc2nnc(Cc3ccccc3)o2)c(C)c1	-0.9	-14	0.2	4	-0.2	-3	1.7	4
COc1ccccc1-c1nc(S(=O)(=O)c2ccccc2)c(N2CCOCC2)o1	2.3	-3	1.4	-1	-0.1	-9	3.1	3
Cc1c(Cl)cccc1NC(=O)Nc1cc(C(C)(C)C)nn1C	-2.9	8	3.2	-3	0.5	x	1.8	3
O=C(CCCn1c(=O)[nH]c2ccsc2c1=O)NC1CCCCC1	2.4	-3	0.6	3	2.4	-4	5.3	-4
CCOc1ccc(NC(=O)Cn2nnc(-c3ccccc3NC(=O)C3CC3)n2)cc1	-8.2	-2	-1.1	-4	-0.1	-8	4.1	-3
O=C(CSc1nc2ccccc2c(=O)n1NC(=O)Cc1ccccc1)NCCc1ccccc1	2.1	19	4.7	5	1.0	1	4.7	2
O=C(O)c1ccc(COc2ccc3ccccc3c2)o1	-3.7	-1	-8.7	3	-5.4	-1	1.0	-2
COC(=O)c1cc(NC(=O)C2(S(=O)(=O)c3ccc(Cl)cc3)CC2)cc(C(=O)OC)c1	2.3	11	-5.3	12	1.1	-5	-2.3	-1
COc1ccc(N/C=C/C(=O)C(F)(F)F)cc1	-4.2	6	-1.2	-2	-0.5	-1	3.1	-1
COc1ccc(NC(=O)c2nn(C)c3c2CS(=O)(=O)c2ccccc2-3)cc1	23	-2	-6.8	-14	-0.6	-8	-11	1
COc1ccccc1Oc1ccc(S(=O)(=O)N2CCCCC2)cc1NC(=O)CCNC(C)=O	7.7	3	2.5	-2	2.2	-6	-2.6	7
Cc1cccc(-n2c(-c3cccc([N+](=O)[O-])c3)nc3nc4ccccc4nc32)c1	5.7	-3	1.2	25	0.4	9	-16	x
COc1cc(/C=C/C(=O)N(Cc2ccccc2)c2ccccn2)cc(OC)c1OC	0.0	4	-0.2	-23	-0.2	-1	-2.5	-18
COc1ccc(CC(=O)N2CCC(CCC(=O)Nc3ccccc3)CC2)cc1	-1.0	2	-3.5	1	-0.7	-1	0.7	-1
Cc1ccc(S(=O)(=O)c2nc(C)oc2N2CCOCC2)cc1	-1.3	-4	-1.7	1	-0.3	-4	-1.1	-4
O=C(Cc1cccs1)Nc1nnc(SCc2ccc(C(F)(F)F)cc2)s1	2.0	-5	-0.5	-6	0.1	-1	3.2	4
Cc1ccc(S(=O)(=O)N2CCN(C(=O)CN3CCc4ccccc4C3)CC2)cc1	5.1	17	2.1	16	0.2	x	4.5	4
Going on with the list:
SMILES	RanGTP-Impb inh	T cruzi inh	LANA-H2A inh	Calb FLC	A1 inh	Beta cell apopt	UCH37 inh	Beta2AR agonist
CN(C)c1ccc(NC(=O)CN2CCC(C(=O)c3ccc(F)cc3)CC2)cc1	u	8	-0.6	-36	0.7	2	1.9	-2
CC(=O)C1=C(c2ccccc2)NC(=O)NC1c1ccccc1 (stereo not given)	3.0	3	-0.3	7	-0.5	-1	7.2	2
O=C(COC(=O)C1(c2ccc(Cl)cc2)CCCC1)NCc1ccco1	-2.1	3	-3.3	3	-0.5	-3	0.3	3
O=C(NC12CC3CC(CC(C3)C1)C2)c1ccc(-c2ccc(Cl)cc2)o1	1.9	59*	3.4	14	0.7	14	-0.4	2
Cc1[nH]c2ccccc2c1-c1csc(NC(=O)CN2CCOCC2)n1	-3.1	-2	-6.3	36	-0.6	37	5.3	-8
O=C(NCC(c1cccnc1)N1CCN(c2ccccc2F)CC1)OCc1ccccc1 (stereo not given)	0.0	56*	-3.1	-17	0.2	4	-0.8	2
N=C1S/C(=C\c2ccccc2F)C(=O)N1c1ccc(F)cc1	-2.6	-4	-1.4	-5	1.0	-3	x	1
CN(Cc1cccs1)C(=O)Cn1cnc2cc([N+](=O)[O-])ccc2c1=O	-5.3	-9	3.2	8	-0.3	1	5.0	-5
O=C(N/N=C/c1ccc(Cl)cc1)c1nc2ccc([N+](=O)[O-])cc2c(=O)[nH]1	-0.2	-17	-1.5	5	1.1	0	x	2
Cc1ccc(-n2[nH]c(C)c(/C=N/c3ccccn3)c2=O)cc1	5.2	-12	-8.8	5	-2.5	53	x	-8
Cc1ccccc1Cc1n[nH]c(=S)n1N	1.1	-8	-0.2	-4	1.4	2	2.7	-1
